# High-throughput results deposited in PubChem by Fisher Drug Discovery Resource Center.
# NPYLR7 ag – mosquito NPYLR7 agonism; HEK293T NPYLR7/Galpha15, GCaMP6s calcium fluorescence; activation, % at 10 µM; 0.15% of 270,000 active; in the data active = activation above about 40%;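 note: 0% = vehicle and 100% = reference agonist at the receptor; some compounds past the cut are filed as inactive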
# NPYLR7 ag max-min – also measured in NPYLR7 ag; calls as there; activation, %; measured here: Max-Min RFU normalised activation; some inactives read as strong as hits;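 span of the calcium signal over five minutes; 0% = vehicle and 100% = native peptide agonist; compound fluorescence can raise it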
# The depositor's hits bear a star; & = joins results of further samples. These rows are one share of the data. The share of hits here may be higher or lower than overall.
# Value order – NPYLR7 ag	NPYLR7 ag max-min
- Cc1cc(OC(=O)CC(C)(C)C)c([N+](=O)[O-])c(=O)[nH]1
  1	-1
- CCc1ccc(-c2noc(CSc3nnc(N)s3)n2)cc1
  8	1
- O=[N+]([O-])c1ccc(/C=N\Nc2nc(-c3ccccc3)c3cc(Cl)ccc3n2)o1
  -23	-23
- CCc1nc2ccc(C(=O)NC3CCN(C)CC3)cn2c1N(C)CCC(C)C
  -7	-12
- COc1ccccc1N1CCN(Cc2cccc(OCC(N)=O)c2)C(C)C1 (stereo not given)
  0	-1
- CCOc1ccc(-c2n[nH]c(=S)n2CCC(=O)Nc2ccc(C)cn2)cc1
  -3	-3
- CCc1nc2sc3c(c2c2nnc(C)n12)CCC3
  -6	9
- N#Cc1cccc(OC2CC3CCC(C2)N3C(=O)c2ccc(CSc3cccs3)cc2)c1 (stereo not given)
  15	8
- Cc1ccc(S(=O)(=O)N2CCN(CCO)CC2)cc1C
  6	2
- CCn1c(C2CCN(C(=O)CCn3c(C)cccc3=O)CC2)nn(C)c1=O
  2	1
- Cc1nc(N2CCCC2)ncc1-c1cc(=O)[nH]c(N2CCCCC2)n1
  2	0
- Cc1cc(S(=O)(=O)Nc2ccccn2)c(C)cc1Br
  5	1
- Cc1ccc(S(=O)(=O)c2c(C)cc(C)n(CC(=O)NCc3ccc(Cl)cc3)c2=O)cc1C
  -8	-13
- CCN1C(=O)NC(c2ccc(F)cc2)C(C(=O)OC)=C1C (stereo not given)
  3	2
- COc1ccc(N2CCN(C(=O)CNc3cccc(OC(F)(F)F)c3)CC2)cc1
  3	1

# Next section; it opens with the 5 that closed the last part.
# Value order – NPYLR7 ag	NPYLR7 ag max-min
- Cc1nc(N2CCCC2)ncc1-c1cc(=O)[nH]c(N2CCCCC2)n1
  2	0
- Cc1cc(S(=O)(=O)Nc2ccccn2)c(C)cc1Br
  5	1
- Cc1ccc(S(=O)(=O)c2c(C)cc(C)n(CC(=O)NCc3ccc(Cl)cc3)c2=O)cc1C
  -8	-13
- CCN1C(=O)NC(c2ccc(F)cc2)C(C(=O)OC)=C1C (stereo not given)
  3	2
- COc1ccc(N2CCN(C(=O)CNc3cccc(OC(F)(F)F)c3)CC2)cc1
  3	1
- COc1ccc(N=C2SCCCN2C(=S)NC2CC3CCC2C3)cc1OC (stereo not given)
  7	-4
- CCCCn1c(=O)c2c(nc3n2CC(C)=NN3CC)n(C)c1=O
  8	10
- CCOc1ccc(-n2nnnc2-c2nc3ccccc3s2)cc1
  -4	-8
- Cc1ccccc1COc1cccn2c(N(C)C(=O)CCC3CCCC3)c(C)nc12
  -5	-15
- CNC(=O)CSc1nc(-c2ccccc2F)nc2c1c(=O)n(C)c(=O)n2C
  -5	-10
- O=C(CCc1ccc(Cl)s1)NCc1nc(-c2ccccn2)no1
  -6	-8
- NC(=O)c1c(NC(=O)c2cc3n(n2)C(C(F)(F)F)CC(c2ccco2)N3)sc2c1CCC2 (stereo not given)
  -1	-2
- NC(Cc1ccc([N+](=O)[O-])cc1)=NOC(=O)N1c2ccccc2Sc2ccccc21
  -7	-14
- CN(CC1COc2ccccc2O1)C(=O)CN1C(=O)NC2(CCc3ccccc32)C1=O (stereo not given)
  4	5
- CC(=O)Nc1c2c(nn1-c1ccc([N+](=O)[O-])cc1)CSC2
  -3	0
- Cc1cc(NC(=O)CSCC(=O)N(Cc2cnn(C)c2)C(C)C)no1
  7	7
- CCN(CC)C(=O)Oc1ccc2c(ccn2Cc2cc(F)ccc2Br)c1-c1ccc(C#N)cc1
  10	4
- CC(=O)N1CCC(N(CC(=O)Nc2ccc(Cl)cn2)Cc2ccc3c(c2)CCO3)CC1
  2	2
- Cc1oc(-c2ccccc2)nc1-c1c(-c2ccccc2)ncn1CCO
  0	-1
- O=C(NCc1ccccc1Br)c1cncn1-c1ccc(-c2ccc(F)c(F)c2)cc1
  4	3

# (cont.)
# Value order – NPYLR7 ag	NPYLR7 ag max-min
- O=c1c2nc(N3CCOCC3)sc2c(-c2ccco2)nn1CCc1ccccc1
  -2	-4
- Cc1cccc(C)c1N(CC(=O)N(C)Cc1ccccc1)S(C)(=O)=O
  -4	-2
- Cn1nc(CC(=O)N2CC(C(=O)N3CCOCC3)Oc3ccccc32)c2ccccc2c1=O (stereo not given)
  6	12
- CCCn1nc(C(=O)NCc2ccc(S(=O)(=O)N(CC)CC)cc2)c2ccccc2c1=O
  2	7
- COc1ccc(C2C(C#N)C(=N)C(C#N)(C#N)C3=CCN(C(C)C)CC32)c(OC)c1 (stereo not given)
  17	15
- CCCS(=O)(=O)N1CCN(CCN2C(=O)CSC2c2ccc3c(c2)OCCO3)CC1 (stereo not given)
  16	24
- CCOc1ccccc1NC(=O)N(CC(=O)N(CCOC)Cc1cccn1C)C(C)C
  21	19
- CCOC(=O)C1(Cc2cccc(Cl)c2)CCCN(C(=O)Cn2cnnn2)C1 (stereo not given)
  -9	-15
- CC1=NN(c2ccccc2)C(=O)/C1=C/c1ccc2c(c1)OCO2
  14	19
- CCCn1cc(C(=O)N2CCCC(O)(CO)C2)c(C)n1 (stereo not given)
  -2	-6
- O=C(Cn1cnc([N+](=O)[O-])n1)Nc1ccc2c(c1)OCO2
  -14	-21
- CN(C)c1nc(N)nc(CN(C)C(c2ccc(F)cc2)C2CC2)n1 (stereo not given)
  10	5
- CN(C)C1CCCN(C(=O)c2csc(-c3cccs3)n2)CC1 (stereo not given)
  14	10
- CCn1nc(C)c(CCNc2cc(OC)ncn2)c1C
  3	1
- COc1ccccc1C1(C(=O)N2CCN(C)CC2C)CC1 (stereo not given)
  3	3

# Next structures follow.
# Value order – NPYLR7 ag	NPYLR7 ag max-min
- Cc1c(C(=O)N(Cc2ccccc2F)C2CC2)oc2c1C(=O)CC(C)(C)C2
  -3	-5
- CN(C)c1ccc(-c2nc(-c3ccccc3)nc(-c3ccccc3)n2)cc1
  -10	-13
- CN(CC1CCCCO1)c1cnn(Cc2ccccc2)c(=O)c1 (stereo not given)
  0	27
- CC1(C(=O)Nc2cccc(Oc3ccccc3)c2)CCN1Cc1ccoc1 (stereo not given)
  11	8
- COc1ccccc1-c1ccc2c(c1)C(C)(Cc1cccc(C(N)=O)c1)C(=O)N2 (stereo not given)
  0	2
- CC1CCC2(CC1)OCC(C(=O)NCc1cccc(C(F)(F)F)c1)N2C(=O)c1ccccc1Cl (stereo not given)
  13	11
- Cc1ccc(CSc2ncnc3c2nnn3-c2ccc(F)cc2)cc1
  10	13
- CC(c1ccccc1F)N(C)C(=O)NCc1ccc(NS(C)(=O)=O)cc1 (stereo not given)
  2	0
- CCOCC(=O)NC(C)c1cc(C)ccc1C (stereo not given)
  1	1
- Cc1cccc(-c2ncc(-c3nccn3CCCc3nn[nH]n3)cn2)c1
  3	13
- CCOC(=O)N1CCN(C(=O)Cc2csc(NC(=O)CN(CCOC)C(=O)c3ccc(C)cc3)n2)CC1
  13	19
- CC(C)CCN(CCC(C)C)C(=O)CSc1nnnn1C
  12	8
- CCOc1ccccc1CSc1n[nH]c(CC)n1
  -4	-6
- Cc1cc(C)n(CCCC(=O)N2CC3(CCNCC3)CC2C(=O)O)n1 (stereo not given)
  -1	-10
- COC(=O)c1ccc(CSc2nnc3ccc(-c4cccc([N+](=O)[O-])c4)nn23)o1
  -10	-10

# Following part.
# Value order – NPYLR7 ag	NPYLR7 ag max-min
- COC(=O)C(C)CSCc1ccc(C#N)cc1 (stereo not given)
  -5	-8
- O=C(c1ccc(F)cc1C(F)(F)F)N1CCN(c2nccc(-c3ccc4c(c3)OCO4)n2)CC1
  -6	-11
- COc1cccc(C(=O)N(CC(=O)N2CCc3sccc3C2c2ccc(Cl)cc2Cl)CC2CCCO2)c1 (stereo not given)
  6	6
- COc1ccc(C(=O)NCc2cccnc2N(C)C2CCCCC2)o1
  12	6
- CCC(C(=O)Nc1c(-c2ccc(OC)cc2)nc2cc(C)ccn12)c1ccccc1 (stereo not given)
  -4	3
- O=c1c2cnc3nc(-c4ccncc4)nn3c2ccn1Cc1ccc(Cl)cc1
  2	7
- CCn1c2ccccc2c2nnc(SCC(=O)N(C(C)C)C(C)C)nc21
  -4	-7
- CC(C)C(C)N(Cc1ccco1)C(=O)CCn1cccc1 (stereo not given)
  -10	-12
- COC(=O)CSc1ccc2nnc(-c3cccs3)n2n1
  -1	-1
- CCOC(=O)c1c(NC(=O)COc2ccc(C(C)=O)cc2)sc(CC)c1C
  0	-1
- COc1ccc(-c2nn(Cc3ccccc3)c(=O)c3nc(C)sc23)cc1OC
  -5	-6
- Fc1ccc(-c2nnn(CCCc3n[nH]c(Cc4ccccc4)n3)n2)cc1
  4	1
- O=C1NC(=S)N/C1=C/c1cccc(Cl)c1
  3	14
- CCOC(=O)C1CCN(Cc2cc(Cl)c3ccccc3c2O)CC1
  5	5
- COc1ccc(-c2coc3c(CN4CC5CC(C4)c4cccc(=O)n4C5)c(O)ccc3c2=O)cc1 (stereo not given)
  5	8

# Next part:
# Value order – NPYLR7 ag	NPYLR7 ag max-min
- Cc1ccc(C(=O)Nc2ccc(N3CCN(C(=O)NCCCc4ccccc4)CC3)nc2)cc1
  9	-3
- COc1ccccc1NC(=O)c1cnn(-c2nc(C)cc(=O)[nH]2)c1C
  -3	-4
- O=C(CN1CCN(C(=O)Nc2ccc(F)cc2)CC1)N1CCCC1
  14	3
- CNC(=O)CN(C(=O)COc1cccc(F)c1)c1ccccc1C(=O)NC
  5	4
- CC(C)CN(Cc1cccc(OS(=O)(=O)c2ccc(F)cc2)c1)C(=O)/C=C/c1ccccc1
  17	22
- Cn1ccnc1C(Nc1ncnc2c1cnn2-c1ccc(F)cc1)c1ccccc1 (stereo not given)
  22	11
- Cc1cc(C)c(S(=O)(=O)NC2CCCCC2C)c(C)c1Br (stereo not given)
  6	3
- CCCn1cc(C(=O)NCCCOC)c2nn(-c3ccccc3)c(=O)c-2c1
  -2	0
- CCn1c(SCC(=O)Nc2cccc(Cl)c2)nc2c(-c3ccccc3)c[nH]c2c1=O
  0	-4
- CCOCCCN(CC(=O)N(Cc1ccc(F)cc1)Cc1ccco1)S(=O)(=O)c1cccc(C(F)(F)F)c1
  -8	2
- CCCCCC(=O)N1CC(=O)N2CCc3cc(OC)c(OC)cc3C2C1 (stereo not given)
  16	4
- CCc1cc(N(C)Cc2n[nH]c3c2CCC3)nc(N2CCOCC2)n1
  24	7
- CC(C)NC(=O)NCCc1ccc(NC(=O)C23CC[C@@](C)(C(=O)O2)C3(C)C)cc1
  -5	-9
- Fc1ccc(Cc2nc(CN3CCCCCCC3)cs2)c(Cl)c1
  0	-3
- CN(Cc1ncc[nH]1)C(=O)C1=NNC(=O)CC1
  9	0

# Profiles, looked up by structure. Screens in order: NPYLR7 ag | NPYLR7 ag max-min
# Cc1ccc(C(=O)Nc2ccc(N3CCN(C(=O)NCCCc4ccccc4)CC3)nc2)cc1 in the list: 9 | -3
# Cc1cc(C)n(CCCC(=O)N2CC3(CCNCC3)CC2C(=O)O)n1 (stereo not given) in the list: -1 | -10
# CCn1nc(C)c(CCNc2cc(OC)ncn2)c1C in the list: 3 | 1

# (next part)
# Value order – NPYLR7 ag	NPYLR7 ag max-min
- COc1ccc(-c2nccc3[nH]nc(-c4cccc(F)c4)c23)cc1
  4	3
- CN1CCN(C2=Nc3ccccc3Oc3ccc(Cl)cc32)CC1
  2&-16&10&-3&1	-12&-21&8&-9&-28
- COc1ccc(OC)c(C2CC(c3ccc(C)cc3)=NN2C(=O)CN2CCN(Cc3ccccc3)CC2)c1 (stereo not given)
  1	1
- CCOC(=O)Cn1c2ccccc2n2nc(C)c(=O)nc12
  17	10
- CC1(C)CC2(C)N(CC(=O)N2Nc2ccc(-c3cccs3)nn2)C(=S)N1 (stereo not given)
  -4	-8
- CCCn1c(=O)c2c(nc3n2C(C)C(C)=NN3CC(=O)OC)n(C)c1=O (stereo not given)
  9	13
- O=C(O)CSc1nnc(-c2cnccn2)n1-c1cccc(Cl)c1
  1	2
- COc1cccc(C(C)N(C)C(=O)c2cc(Cn3ccnc3C(C)C)[nH]n2)c1 (stereo not given)
  15	2
- COc1ccc(C2=NN(C(=O)CN3CCCCC3C)C(c3ccccc3F)C2)cc1 (stereo not given)
  13	21
- Cc1csc2nc(CSc3nc4ccccc4[nH]3)cn12
  7	4
- CCc1nc([C@H]2CN(C)C[C@@H]2C(=O)NCCCn2ccnc2)c(C)[nH]1
  5	1
- CN(Cc1ccc(-n2cccn2)cc1)S(=O)(=O)c1cccs1
  4	5
- CCn1nc(C(=O)NNC(=O)Cc2c(F)cccc2Cl)c2ccccc2c1=O
  1	-2
- COc1ccc(SCc2ccc(C(=O)N3C4CCC3CC(Oc3cccc(C#N)c3)C4)cc2)cc1OC (stereo not given)
  -13	-13
- O=C(Nc1ccc(Cl)cc1)C(C1CCCC1)N1CCN(C(=O)c2ccccc2F)CC1 (stereo not given)
  -1	8

# The listing continues.
# Value order – NPYLR7 ag	NPYLR7 ag max-min
- Cc1ccc(C2CC(C(F)(F)F)n3ncc(C(=O)NC(C)(C)C)c3N2)cc1 (stereo not given)
  1	-8
- CCOC(=O)C1(CCOc2ccccc2)CCN(Cc2c[nH]c3ccccc23)CC1
  8	3
- O=C(NCc1nccn1Cc1ccccc1)c1ccc(-n2cnnn2)cc1
  0	-4
- CN1C[C@@H](N)C[C@H]1C(=O)NCC1(N2CCOCC2)CCCCC1
  12	3
- COc1cccc(C2=NC(=Cc3cccc(C#N)c3)C(=O)O2)c1
  -2	-4
- Cc1cc2oc(=O)cc(CSc3nn4c(=O)c(C(C)(C)C)nnc4s3)c2cc1C
  -1	-4
- O=C1c2cccc3cccc(c23)C(=O)N1Cc1ccco1
  6	7
- Cc1nc2n(n1)C(=O)C(C(c1cccc(F)c1)N1CC(C)CC(C)C1)S2 (stereo not given)
  1	-1
- CC(=O)Nc1cccc(-c2ccnc3c2CC(C(=O)NCC2CC2)O3)c1 (stereo not given)
  -5	-6
- Cc1ccsc1C(=O)N1CCCC(C(=O)c2cccc(OC(C)C)c2)C1 (stereo not given)
  -3	-3
- CN(CCC1CCOCC1)C(=O)c1cn(Cc2ccccc2F)nn1
  2	-2
- CCOc1ccc(-c2ccc(OCCNS(=O)(=O)c3ccc(CC)s3)nn2)cc1
  -2	-1
